# 2A Renilla: lowers the Renilla signal of an FMDV 2A StopGo reporter. HEK cells with a luciferase reporter of 2A StopGo recoding. Potency, µM (top dose mostly 57.5 µM), for inactives: at the top dose signal change, negative = less light. actives 0.32% (n = 120,000). AID 1745857; active means well fitted falling curve with a large enough effect; inconclusive means small, poorly fitted or top-dose-only effect; inactive means no such curve, though single readings can be large or run the other way; further: nearly all actives have a fitted effect of over 55% in size; overnight with compound
# 2A firefly: lowers the firefly signal of an FMDV 2A StopGo reporter; actives 0.23% (n = 120,000); HEK cells with a luciferase reporter of 2A StopGo recoding; Potency, µM (highest dose often 57.5 µM), for the others: top-dose signal change, negative = less light; active = well fitted falling curve with a large enough effect; inconclusive = small, poorly fitted or top-dose-only effect; inactive = no such curve, though single readings can be large or run the other way; further: nearly all actives have a fitted effect of over 60% in size; overnight with compound
# The depositor's hits bear a star; ? = inconclusive; & = joins results of further samples; [ ] = dose if it differs, or a comment. On the % scale 0 is the no-effect control and ±100 the full control effect; potency means the concentration at half of the fitted maximal effect.
# Under each structure: 2A Renilla | 2A firefly
- O=C(c1ccc2ccccc2n1)N1CCN(C2CC2)CC1
→ -12.4% | 1.3%
- Cc1ccc2oc(-c3cc(NC(=O)Cc4ccccc4)ccc3Cl)nc2c1
→ -8.1% | -2.3%
- CCCCNC(=O)C12CC3CC(CC(C3)C1)C2
→ -9.0% | -5.6%
- Cc1nnc(SCc2nnc(-c3ccc(F)cc3)o2)n1-c1ccccc1
→ -16.7% | -1.4%
- Cc1ccc(O)c(NC(=O)CCS(=O)(=O)c2nc(-c3ccc4c(c3)OCO4)cc(C(F)(F)F)n2)c1
→ -4.2% | -4.0%
- CCCSc1ncc(Cl)c(C(=O)N(Cc2ccccc2)c2ccc(OC)cc2)n1
→ ? | -36.4%
- COc1ccc(Nc2nc3ccccc3nc2NS(=O)(=O)c2cccc3nsnc23)cc1
→ 22.7% | 0.0%
- O=C(CC1Oc2ccccc2NC1=O)NCc1ccc(F)cc1 (stereo not given)
→ -5.9% | ?
- Cc1ccc(F)cc1NC(=O)COC(=O)c1ccc2ccccc2n1
→ -10.8% | 3.7%
- COc1ccc(CCNC(=O)Cc2c(C)c3cc4c(C(C)(C)C)coc4c(C)c3oc2=O)cc1OC
→ 171.9%[activator] | 159.5%[activator]
- Cc1c(CCC(=O)NC2CCS(=O)(=O)C2)c(=O)oc2cc(O)ccc12 (stereo not given)
→ -2.8% | 11.0%
- COc1ccc(CNC(=O)C(C)n2c(=O)cc(C)c3c(C)nn(-c4ccccc4)c32)cc1 (stereo not given)
→ -10.5% | -11.3%
- O=C1C(=C(c2ccccc2)c2ccccc2)C(Cl)C(Cl)(Cl)c2ccccc21 (stereo not given)
→ 11.2µM* | ?
- O=C(CCc1ncc(-c2c(F)cccc2F)o1)Nc1ccccn1
→ 15.4% | 178.7%[activator]
- S=C(NCc1cccs1)NCC1CCCCC1
→ 9.7%[1.06 µM] | 0.0%
- N#Cc1c(N)n[nH]c1CCCNC(=O)c1ccccc1Nc1cccc(C(F)(F)F)c1
→ 0.0% | ?
- CCOC(=O)c1cc(-c2ccc(C)cc2)n(CC(=O)Nc2cccc(C(C)=O)c2)c1C
→ 64.4%[activator] | -24.4%
- O=C(Nc1ccc(F)cc1C(F)(F)F)C1CCN(c2ncccn2)CC1
→ 4.6% | -16.8%
- Cc1cc(I)ccc1NC(=O)c1nn(C)c(=O)c2ccccc12
→ -2.1% | 8.1%
- CN(CCCOC(=O)c1cc2ccccc2o1)C1CN(Cc2cn(Cc3ccc([N+](=O)[O-])cc3)nn2)S(=O)(=O)C1 (stereo not given)
→ 16.8% | 9.2%
- CCc1cccc(NC(=O)Cn2c(C(=O)OC)cc3sc(Cl)cc32)c1
→ -18.7% | -17.3%
- CCCCN(Cc1ccco1)C(=O)c1cc2c(s1)-c1c(C)cccc1OC2
→ 26.3% | 16.4%
- CN1CCCC1CNC(=O)c1cc2ccccc2s1 (stereo not given)
→ -22.6% | 0.5%
- Cc1ccc(-c2nnc(NC(=O)c3ccc4c(c3)OCCO4)o2)c(C)c1
→ -7.0% | -19.1%
- Cc1ccc(N(C)C(=O)C2CCN(S(=O)(=O)c3cn(C)cn3)CC2)cc1
→ 79.2%[activator] | 42.0%[activator]
- Cc1csc2nc(COC(=O)c3ccc(NC(=O)c4ccc(C(C)(C)C)cc4)cc3)cc(=O)n12
→ -5.8% | 64.3%[activator]
- CCCNC(=O)c1c(C)nn(-c2cccc(C)c2)c1-n1cccc1
→ -22.9% | -28.6%
- CC(Oc1ccc(Br)cc1)C(=O)Nc1ncn[nH]1 (stereo not given)
→ -8.0% | 19.7%
- COc1ccc(CCNC(=O)C(C)C)cc1
→ 6.5% | 23.3%
- CCOc1ccc(NC(=O)c2cccc(N3CCCS3(=O)=O)c2)cc1
→ 5.4% | 81.0%[activator]

# Brought forward from above: 2 compounds, then new ones.
# Under each structure: 2A Renilla | 2A firefly
- COc1ccc(CCNC(=O)C(C)C)cc1
→ 6.5% | 23.3%
- CCOc1ccc(NC(=O)c2cccc(N3CCCS3(=O)=O)c2)cc1
→ 5.4% | 81.0%[activator]
- COc1ccc(C2C(C#N)=C(N)OC3=C2C(=O)CC(C)(C)C3)c2ccccc12 (stereo not given)
→ -2.9% | 0.1%
- Fc1ccc(CNc2ncnc3onc(-c4cc(F)cc(F)c4)c23)cc1
→ -3.2% | -5.4%
- Cn1cc(C(=O)OCC(=O)NC2CCCCC2)c2ccccc21
→ 1.2% | -0.4%
- COc1ccc(CCNC(=O)CCc2c(C)nc3c(c(C)nn3-c3ccc(C)c(C)c3)c2C)c(OC)c1OC
→ -12.9% | -10.1%
- O=C(COc1ccccc1)NCc1ccc2c(c1)CCN2C(=O)c1ccc(F)cc1
→ 6.8% | -15.8%
- Cc1cccc(NC(=O)Nc2c[nH]c(=O)[nH]c2=O)c1C
→ 55.7%[activator] | 103.9%[activator]
- CCOC(=O)c1cnc2c(C)c(Cl)ccc2c1NCCc1ccc(OC)c(OC)c1
→ 6.2% | 4.5%
- Cc1ccc2oc(C(=O)Nc3ccccc3F)cc(=O)c2c1
→ 17.4% | 128.0%[activator]
- CCOC(=O)c1ccc(NC(=O)C2CC(=O)Nc3nc(C)nn32)cc1 (stereo not given)
→ -4.0% | -3.8%
- COc1ccc(Cn2ccc3nc(C)c(C(=O)N4CCN(c5ccc(OC)cc5)CC4)cc3c2=O)cc1
→ ? | ?
- COc1ccccc1OCCNC(=O)COc1cc2oc(=O)cc(C)c2cc1Cl
→ -6.8% | -5.0%
- CC(=O)Nc1ccc(NC(=O)CCc2ncc(-c3ccc(Cl)cc3)o2)cc1
→ -5.4% | -4.5%
- COc1ccc(-n2nnc3c(N4CCN(C(=O)Cc5cccs5)CC4)ncnc32)cc1
→ -3.0% | 6.0%
- CC(=O)c1ccc(NC(=O)c2nc3ccccc3n(C)c2=O)cc1
→ 1.2%&0.2% | 98.0%&6.4%[activator]
- COc1cc(CN(C)C(=O)Cc2nc(-c3cccs3)oc2C)ccc1OC(F)F
→ -0.7% | 15.7%
- Fc1ccc(CSc2nc(CN3CCOCC3)nc3ccccc23)c(Cl)c1
→ -20.1% | -17.1%
- CCOC(CNC(=O)CS(=O)Cc1nc(-c2ccccc2)oc1C)OCC (stereo not given)
→ -4.5% | 0.4%
- CCOc1ccc(C(CC(=O)O)NC(=O)c2ccccc2F)cc1 (stereo not given)
→ -17.4% | -19.2%
- Cc1ccc(N(C)C(=O)Cn2cnc3onc(-c4ccc(F)cc4)c3c2=O)cc1C
→ -12.4% | -0.4%
- CC(NC(=O)C(=O)Nc1c2c(nn1-c1ccc(F)cc1)CSC2)c1ccccc1 (stereo not given)
→ -3.0% | -5.7%
- Cc1ccc(S(=O)(=O)N2CCN(Cn3ncc4ccccc4c3=O)CC2)cc1
→ -15.7% | -11.8%
- COc1ccc(N2CCN(C3(c4ccccc4)C(=O)c4ccccc4C3=O)CC2)cc1
→ -10.9% | 9.2%
- COc1ccccc1-c1nnc(SCC(=O)Nc2ccccc2C#N)n1-c1ccc(C)cc1
→ 88.2%[activator] | -10.7%
- CCOc1ccc(-c2nc3c(C#N)c[nH]n3c2NC2CCCC2)cc1
→ -5.6% | 28.2%
- COc1ccccc1NC(=O)c1cc(-c2ccccn2)n[nH]1
→ 11.0% | 64.1%[activator]
- Cc1ccccc1CC(=O)Nc1cccc2cccnc12
→ 19.2% | 26.1%
- C[N+](CCOCc1ccccc1)(CCOCc1ccccc1)CCOCc1ccccc1
→ 28.2µM* | ?
- COc1ccc(-c2nc(CS(=O)CC(=O)NCc3ccccc3Cl)c(C)o2)cc1OC (stereo not given)
→ 71.0%&0.0%[activator] | 23.7%&-12.3%
- N#Cc1ccc(NC(=O)CSC2=Nc3ccccc3C3CC=NN23)cc1Cl (stereo not given)
→ 1.1% | -4.4%
- O=C(Nc1c(-c2ccccc2)nc2ccccn12)c1ccc(Br)cc1
→ -10.4% | -5.4%

# Compound profiles, as listed above. Values in the order: 2A Renilla	2A firefly
# `COc1ccc(-c2nc(CS(=O)CC(=O)NCc3ccccc3Cl)c(C)o2)cc1OC` (stereo not given) as listed: 71.0%&0.0%[activator]	23.7%&-12.3%
# `Cc1ccc(N(C)C(=O)Cn2cnc3onc(-c4ccc(F)cc4)c3c2=O)cc1C` as listed: -12.4%	-0.4%
# `Cc1ccccc1CC(=O)Nc1cccc2cccnc12` as listed: 19.2%	26.1%
# `CCOC(CNC(=O)CS(=O)Cc1nc(-c2ccccc2)oc1C)OCC` (stereo not given) as listed: -4.5%	0.4%
# `Cc1ccc(S(=O)(=O)N2CCN(Cn3ncc4ccccc4c3=O)CC2)cc1` as listed: -15.7%	-11.8%

# Continued:
# Under each structure: 2A Renilla | 2A firefly
- COc1ccc(-c2cc(C(F)(F)F)nc(NCc3ccc(F)cc3)n2)cc1
→ -5.6% | -18.5%
- COc1ccc(C2CC(=O)Nc3c2c(C)nn3-c2ccc(C)cc2)cc1O (stereo not given)
→ -1.0% | 6.2%
- COc1ccc(N2CCN(CCCNC(=O)c3cc(Nc4ccc(OC)cc4OC)nc4ccccc34)CC2)cc1
→ -16.0% | -15.9%
- CCCc1noc(C(C)Sc2nc(C3CC3)nc3ccccc23)n1 (stereo not given)
→ -25.6% | -13.9%
- CCOC(=O)C(=O)Nc1c(C(=O)Nc2cccc(F)c2)oc2ccccc12
→ -1.1% | 0.0%
- COc1ccc(OC)c(C2c3c(n[nH]c3C)Nc3[nH]c(=O)[nH]c(=O)c32)c1 (stereo not given)
→ 11.2% | 26.7%
- CCc1ccc2oc(-c3ccc(C)c(NC(=O)/C=C/c4ccco4)c3)nc2c1
→ 12.9% | 86.3%[activator]
- CCOc1ccc(NC(=O)COc2ncnc3ccccc23)c([N+](=O)[O-])c1
→ 20.1% | 49.9%
- O=C(CSc1nc2ccccc2n1Cc1c(F)cccc1Cl)N1CCN(c2ccc(F)cc2)CC1
→ -11.1% | -10.8%
- Cc1cccc(N2CCN(c3ncnc4c3nc3n4CCCCC3)CC2C)c1 (stereo not given)
→ 2.51µM* | 2.82µM*
- O=C1c2cccc3c2[C@H](CCC3)CN1[C@@H]1CN2CCC1CC2
→ -17.4% | -28.9%
- O=C(CCC(=O)N1CCOc2ccccc21)NCc1cccs1
→ -5.0% | -6.8%
- COc1cccc(-n2c(=O)c3c(C)c(C)sc3n(CC(=O)Nc3ccccc3OC)c2=O)c1
→ -10.1% | -7.8%
- COc1ccc(C(=O)N(Cc2ccc(N(C)C)cc2)Cc2ccco2)cc1Cl
→ 0.0% | 0.0%
- C=CCNc1nnc(SCc2ncc(-c3ccccc3)o2)s1
→ -1.0% | 58.5%[activator]
- Cc1cc2nc(-c3ccc(OCc4ccccc4F)cc3)cc(C(F)(F)F)n2n1
→ -8.0% | -2.7%
- CC1(C)C=C(CC(=O)O)CC(C)(C)N1
→ 8.9% | 23.0%
- COc1cccc(NC(=O)c2sc(-c3ccco3)nc2-c2ccccc2)c1
→ 0.0% | 32.0%[activator]
- CCCOc1ccc(NC(=O)CC2C(=O)N(c3ccc(Cl)cc3)C(=O)N2CCc2ccncc2)cc1 (stereo not given)
→ 25.3% | 41.4%[activator]
- CCNC(=O)Cn1c(C)c(Br)c2ccccc21
→ -3.3% | 3.9%
- Nc1nc(CN2CCN(c3ccccc3F)CC2)nc(N2CCCc3ccccc32)n1
→ -10.1% | -3.8%
- CC(C)(C)c1ccc(C(O)CCCN2CCC(C(O)(c3ccccc3)c3ccccc3)CC2)cc1 (stereo not given)
→ -7.1% | -9.2%
- COc1ccc(OC)c(CN2CCN(C/C=C/c3ccccc3)CC2)c1
→ 5.3% | -4.1%
- CC(Cl)C(=O)Nc1ccccc1C(C)C (stereo not given)
→ -2.0% | 0.0%
- COc1ccc(C2CC(=O)N(Cc3cccc(C)c3)c3c2c(C)nn3-c2nc(C)cc(C)n2)c(OC)c1 (stereo not given)
→ -9.9% | -12.5%
- CCCCCC1CCC(c2ccc(-c3ccccc3)cc2)=CC1=O (stereo not given)
→ 15.8% | 0.0%
- O=S(=O)(NCc1ccco1)c1cccs1
→ 101.4%[activator] | 5.7%
- CCN(CC)C(=O)c1cc(-c2ccccc2Cl)nc2ccccc12
→ 6.4% | -2.7%
- Cc1csc(CNC(=O)c2ccccn2)n1
→ 0.3% | 0.0%
- COc1cccc(-c2cc(C(=O)Nc3cc(Cl)ccc3O)on2)c1
→ 18.4% | 76.2%
- CCOc1ccc(NC(=O)C2CCN(c3nnc(-n4c(C)ccc4C)s3)CC2)cc1
→ -4.8% | -8.6%
- CCN1CCN(C(=O)C2CC(C)=C(C)CC2C(=O)O)CC1 (stereo not given)
→ 6.7% | 7.7%
- Cc1ccc2oc(C(=O)Nc3ccc(C)c(C)c3)cc(=O)c2c1
→ 3.6% | 13.1%
- COc1ccccc1-c1noc(CSc2nnc(-c3cccs3)n2C2CC2)n1
→ 37.3%[activator] | 31.1%[activator]
- Cc1ccc(S(=O)(=O)N(CC(=O)O)Cc2ccc(Cl)cc2Cl)cc1
→ 37.0%[activator] | 35.3%[activator]
- COc1ccccc1NC(C)c1nc(-c2ccco2)no1 (stereo not given)
→ 4.7% | 9.3%
- CCCn1c(N)c(N(CCOC)C(=O)c2cccc(OC)c2)c(=O)[nH]c1=O
→ 0.3% | -6.2%
- COc1cccc(CNC(=O)Cc2c(C)c3ccc(OC)c(OC)c3oc2=O)c1
→ 5.0% | 5.4%
- Cc1ccc(Cn2c(Sc3ncccn3)nc3c2c(=O)[nH]c(=O)n3C)cc1
→ 21.4% | 17.3%
- CC(OC(=O)C1CCC1)C(=O)NC(N)=O (stereo not given)
→ -9.8% | 5.6%
- Ic1ccc(-c2noc(-c3ccco3)n2)cc1
→ 9.0% | 141.3%[activator]
- CC(=O)c1ccc(C(=O)N(C)Cc2ccc(F)cc2)s1
→ 14.6% | 0.0%
